PrP UTR inh: inhibition of PrP 5' UTR reporter expression | cell-based PrP 5' UTR mRNA reporter, plate reader | inhibition, % (concentration not given with the values) | 340,000 compounds, 0.35% hits | AID 488862;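 active = every replicate at 50% or more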;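 also: 0 = median of the neutral control wells; tested in H4 reporter cells; numbers are from one replicate; inactives centre near -14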
BJeLR viability: BJeLR cell viability loss; BJeLR (HRASV12) viability, CellTiter-Glo ATP luminescence, 48 h; reference of the scale not given here; inhibition, % (no concentration beside the values); 300,000 compounds, 0.17% hits; AID 1554;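 active = replicate mean above 50%; inconclusive = above 50% but judged a plate artefact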;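 also: 50 nL library stock added to about 25 µL; numbers are from one replicate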
Sa ugtP lethal: compounds lethal to S. aureus RN4220 ugtP deletion mutant; OD600 growth, 16 h; some inactives read as strong as hits; growth inhibition, % (no concentration beside the values); 330,000 compounds, 0.54% hits; AID 1259309;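 active = z-score under -3 and OD600 up to 0.15 on both plates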;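 also: plate controls were untreated wells for no effect and antibiotic for full effect; wells of about 80 µL received 100 nL stock; the first replicate is given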
Bead autofluor: compound fluorescence in toxin protease inhibitor counterscreen. compound autofluorescence counterscreen, microsphere flow cytometry; stronger effect = higher value. AID 624483. fluorescence intensity (test concentration not listed). 360,000 compounds, 3.1% hits;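 active = at least 3 SD above the mean of all compounds, about 16000 in these data; inconclusive = too few beads counted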;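 also: 100 nL of 1 mM stock went into each well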
RN4220 kill: S. aureus RN4220 growth inhibition; OD600, 16 h; inhibition, % (no concentration beside the values); 330,000 compounds, 0.33% hits;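 active = z-score of -3 or lower and OD600 up to 0.18 on both plates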;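 also: plate controls were untreated cells for no effect and reference antibiotic for full effect; stock transfer was 100 nL into about 80 µL; one replicate is shown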
Mtb hypoxia rep: inhibitors of hypoxia-regulated fluorescent reporter in Mycobacterium tuberculosis; M. tuberculosis hypoxia-regulated fluorescent reporter, fluorescence; fluorescence inhibition, % (no concentration beside the values); 300,000 compounds, 0.1% hits; AID 1159583;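 active = 35 to 45% if threefold the growth effect, above 45% if 1.5-fold the growth effect; inactive = the rest, general growth blockers included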;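 also: wells of about 50 µL received 100 nL stock; 0% = vehicle wells and 100% = reference inhibitor wells; whole bacteria with a GFP reporter of the hypoxia response; strong numbers were not always called active; many hits fall short of the cut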
Mtb hypoxia rep growth: further read-out of Mtb hypoxia rep, marked with its call; growth inhibition, %; measured here: M. tuberculosis growth (absorbance);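 0% = vehicle and 100% = reference antibiotic; read after six days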
Active calls of the source: *; ? = inconclusive; / = not tested or not shown; & = joins results of further samples.

Sequence of screens: PrP UTR inh, BJeLR viability, Sa ugtP lethal, Bead autofluor, RN4220 kill, Mtb hypoxia rep, Mtb hypoxia rep growth
> CCC1CCCCN1CCCNC(=O)C1CCCN(c2nn3c(=O)cc(C)nc3s2)C1 (configuration not stated)
 : -3, -19, -2, 5785, -1.0, -5, -5
> Cc1n[nH]c(=S)n1/N=C/c1ccc(-c2ccccc2[N+](=O)[O-])o1
 : -15, 0, /, 2167, /, /, /
> Cc1nnc(SCC(=O)N2CCN(C(=O)c3ccco3)CC2)n1-c1ccccc1
 : -39, -3, 2, 3433, 2.9, 5, 11
> O=C(Cc1ccc(F)cc1)Nc1cccc2cccnc12
 : -8, 3, 8, 7477, 5.7, 6, -3
> O=C(NN=Cc1ccc([N+](=O)[O-])o1)c1cc2ccccc2o1
 : /, /, 31, /, 24, /, /
> O=c1c2cc(Cl)ccc2oc2nc3n(c(=O)c12)CCCS3
 : 2, -4, -7, 2628, 6.3, /, /
> O=C(CN1C(=O)NC(Cc2ccccc2)C1=O)Nc1ccc(F)c(Cl)c1 (configuration not stated)
 : -20, /, -5, 2968, 1.5, 5, -18
> CCCc1nc(N2CCOCC2)c(C#N)c2c1CCCC2
 : 14, -7, 14, 3581, 5.3, /, /
> O=S1(=O)N=C(NN=Cc2cccs2)c2ccccc21
 : /, /, 2, /, 2.6, -1, 8
> C/C=C/C(=O)N[C@@H]1c2ccccc2CC[C@@H]1OCc1ccccc1
 : -31, /, 2, 3990, -1.6, -4, 2
> CCC(Oc1ccccc1OC)C(=O)Nc1ccc2c(c1)n(C)c(=O)n2C (configuration not stated)
 : -8, -14, -1, 3173, 0.2, 3, -5
> Cc1ccc(CCNC(=O)C2CC(=O)N(CCc3ccccc3)C2)cc1 (configuration not stated)
 : -25, 5, 7, 6093, 0.2, 6, -5
> COc1cccc(Nc2nnc(SCc3cc([N+](=O)[O-])cc4c3OCOC4)s2)c1
 : 12, 0, -13, 2093, -6.4, /, /
> Cc1oc(-c2ccccc2Cl)nc1CSCC(=O)NC1CCCC1
 : -12, -6, -4, 3784, 5.6, 10, 9
> Cc1ccn(CCSCC(=O)O)n1
 : -36, -1, 1, 22249*, 1.4, 3, -2
> CN1CCN(NC(=O)Nc2ccc(Br)cc2Cl)CC1
 : -26, 2, 0, 5005, -0.4, -1, 0
> O=S(=O)(c1c(F)cccc1F)N1CCN(C(=S)NCc2ccc3c(c2)OCO3)CC1
 : -12, /, 0, 4233, -3.3, 6, 8
> CCOC(=O)c1ccsc1NC(=O)CCS(=O)(=O)c1ccccc1
 : -25, 9, 2, 5138, 7.8, 14, 1
> Cc1cc(N2CCCN(C)CC2)nc2cc(Cl)ccc12
 : -5, -2, -4, 8440, -4.2, 1, -3
> CC(C)(C)OC(=O)NN=Cc1ccc(OC(=O)c2cccs2)cc1
 : /, /, 0, /, 7.4, 0, 6
> C(#CC12CC3CC(CC(C3)C1)C2)CN1CCOCC1
 : -17, 1, 1, 4091, 17, -4, 1
> CCOc1cnn(-c2cc(Oc3ccc(C)cc3)ncn2)c(=O)c1Cl
 : 13, 0, -1, 3110, 4.8, 4, 6
> CCC1(c2ccccc2)C(=O)N=C(N)N(C#N)C1=O (configuration not stated)
 : -28, /, 6, 3482, 4.6, 12, 12
> O=C(O)c1cc(S(=O)(=O)NC2CCCc3ccccc32)ccc1O (configuration not stated)
 : -3, -8, 5, 3066, 4.0, 14, -1
> Cc1nc(CSc2ccc(Br)cc2)cs1
 : -25, 1, 6, 3793, 4.4, 17, 9
> CCc1ccccc1NC(=O)CN1CCN(C(=O)c2ccc(OCc3cn4ccccc4n3)cc2)CC1
 : -17, /, -1, /, 2.6, 3, 0
> Cc1ccc(O)c(Nc2ncnc3ccccc23)c1
 : 9, 1, 10, ?, 5.4, 5, 1
> O=C(C1CCN(S(=O)(=O)c2cccs2)CC1)N1CCN(Cc2ccccc2)CC1
 : -7, 4, 8, 4641, 8.4, 6, -8
> Cc1cc(NS(=O)(=O)c2ccc(NC(=O)Cc3ccc([N+](=O)[O-])cc3)cc2)nc(C)n1
 : -16, /, 1, 3846, 4.6, 17, 11
> CC(C)(C)OC(=O)NC1CC2CCCC(C1)N2Cc1ccccc1 (configuration not stated)
 : -9, -1, 3, 3770, -5.3, -2, -6
> CCOc1ccc(CCNC(=O)c2ccc(CS(=O)Cc3ccc(Cl)cc3)o2)cc1 (configuration not stated)
 : -24, 5, 95*, 5228, -8.0, 2, 17
> Nc1nc(F)nc2c1ncn2C1OC(CO)C(O)C1O (configuration not stated)
 : /, /, 11&-5, /, 6.5&9.1, 21, 36
> Cc1nn2c(-c3ccccc3)ccnc2c1Br
 : -8, 6, 15, 3751, 5.9, 11, 6
> CCOC(=O)C1CCN(C(=O)COc2cc(C)c(Br)c(C)c2)CC1
 : -19, -13, -6, 2824, -8.6, 11, 3
> O=S(=O)(c1ccc(-c2n[nH]c(=S)o2)cc1)N1CCCCC1
 : -15, 7, 37, 6097, 67, 19, 4
> O=C(Nc1ccncc1)Nc1ccc(Cl)cc1
 : -27, 2, -15, 6204, -9.0, 5, 14
> O=[N+]([O-])c1ccc2c(c1)C=C1CCCCC1(N1CCCCC1)O2 (configuration not stated)
 : -5, 2, -2, 2497, 3.3, 6, 1
> COc1ccc(C(=O)Nc2c(N)nc(SCC(=O)NCC3CCCO3)[nH]c2=O)cc1OC (configuration not stated)
 : -13, -1, -3, 5175, 1.7, 11, 0
> COc1ccc(C(CNC(=O)c2oc3cc(C)c(C)cc3c2C)N2CCCCC2)cc1 (configuration not stated)
 : -11, 14, -17, 6532, 1.0, -1, 2
> Cc1nc(SCC(=O)O)c(C#N)c2c1CCCC2
 : -2, -6, -6, 4184, 6.1, -3, -3
> O=C(COc1cccnc1[N+](=O)[O-])N1N=C(c2ccc(Cl)cc2)CC1c1ccco1 (configuration not stated)
 : -10, 3, -4, 4807, 6.6, -7, 2
> Cc1cccc(N2N=C(C(=O)OCC(=O)c3ccccc3)CCC2=O)c1
 : -80, /, 6, 3988, 6.5, 11, 8
> COc1ccc(-c2cc(C(=O)Nc3ccccc3O)c3ccccc3n2)cc1OC
 : -8, -9, -11, 3290, -1.5, 3, 0
> C#CCNc1c2c(nc3nnnn13)CCCC2
 : -25, 7, 2, 3801, 4.5, 6, 7
> CN(Cc1cccs1)C(=O)CSc1nnnn1C
 : -11, 1, 2, 2840, 4.2, /, /
> Cc1c(C(=O)N2c3ccccc3CC2C)oc2ccccc12 (configuration not stated)
 : -78, -4, 19, 5599, 2.9, 10, 15
> CCCOc1ccc(/C=N/NC(=O)CSCc2ccc([N+](=O)[O-])cc2)cc1OCC
 : -25, 2, /, 1925, /, /, /
> Cc1ccc2cc(CN(Cc3ccc4c(c3)OCO4)Cc3nnnn3Cc3ccco3)c(=O)[nH]c2c1C
 : 2, 3, -15, 3385, 0.6, 0, 6
> O=C(c1cccc([N+](=O)[O-])c1)n1nc(-c2ccccc2)nc1NCc1ccccc1
 : -40, 0, 5, 10695, -0.1, 1, -3
> O=C(NCC(=O)N(Cc1ccc(F)cc1)C(C(=O)NC1CCCC1)c1ccco1)c1ccco1 (configuration not stated)
 : -14, 3, -2, 4528, 5.7, 5, 1
> COc1cc2c(cc1OC)CN(S(=O)(=O)c1ccccc1F)CC2
 : -14, 0, 3, 4056, 4.4, 7, 2
> O=C(NCCc1c[nH]c2ccccc12)C1CCN(S(=O)(=O)c2ccc(F)cc2)CC1
 : -21, 2, 4, 3970, 3.6, -5, 5
> C/C(Cc1ccccc1)=N\NC(=O)CNC(=O)COc1cccc(C)c1
 : -6, 5, /, 3877, /, /, /
> CCCNC(=O)C(Sc1ccccc1)c1ccccc1 (configuration not stated)
 : -31, -6, 3, 8592, -2.0, 9, -9
> O=C(O)c1ccc(COc2ccc(C=NNC(=O)c3cccs3)cc2)cc1
 : /, /, 1, /, 1.7, 5, 1
> COc1ccc(OC)c(N(CC(=O)N2CCCC2)S(C)(=O)=O)c1
 : -2, 4, -5, 3905, -1.7, -5, 9
> Cc1cccc(C)c1NC(=O)CSc1nnc(-c2ccoc2C)n1CCc1ccccc1
 : -1, -22, -4, 4656, 3.5, /, /
> Nc1nc(SCC(=O)N2CCN(c3ccccc3)CC2)n[nH]1
 : -19, 0, 6, 5983, 1.1, 13, 8
> CCCC(CCC)C(=O)NNc1cc(=O)c2c(=O)n(C)c(=O)n(C)c2[nH]1
 : -9, 9, /, 2250, /, /, /
> COc1ccccc1OCC(=O)Nc1oc(-c2ccccc2)c(-c2ccccc2)c1C#N
 : -21, /, -18, 2232, 0.7, /, /

(next part)
Sequence of screens: PrP UTR inh, BJeLR viability, Sa ugtP lethal, Bead autofluor, RN4220 kill, Mtb hypoxia rep, Mtb hypoxia rep growth
> COc1ccc(-c2cn3cccnc3n2)cc1NC(=O)C1CCCC1
 : -8, -5, 6, 7878, 3.6, 3, 2
> CCOC(=O)C1=C(C)NC2=C(C(=O)c3ccccc32)C1c1cccnc1 (configuration not stated)
 : -9, -11, -6, ?, -12, 5, 2
> CC(NC(=O)COC(=O)CCc1ccccc1)c1ccccc1 (configuration not stated)
 : -28, -16, 2, 8110, 0.3, 0, -4
> COC(=O)C1=C(c2ccccc2OCc2ccccc2)CC2CCC1N2C(=O)NC1CCN(Cc2ccccc2)CC1 (configuration not stated)
 : /, /, 4, /, -1.6, 1, 11
> Cc1ccc(C)c(N2CCN(S(=O)(=O)c3cc4c(cc3Cl)NC(=O)CO4)CC2)c1
 : -13, -4, 13, 5110, 6.8, 2, -2
> Cc1ccc2c(c1)nnn2C1CCN(CC(=O)NCc2ccccc2F)CC1
 : 0, -11, 7, 2237, 1.3, -4, -11
> COc1ccc(CNC(=O)CN(CCC(C)C)S(=O)(=O)c2ccc3c(c2)OCCO3)cc1
 : -17, 4, 4, 2847, -0.4, 7, 3
> CCCCCC(=O)NNC(=O)c1ccc(-c2ccccc2)cc1
 : 0, 2, 22, 15871, -1.2, 10, 7
> COCc1nnc(NC(=O)c2ccccc2Oc2ccccc2)s1
 : -7, 4, 4, 5555, 10, 2, 0
> Cc1nc(C(=O)NC2CC2)sc1C1(C)CC(c2cccc([N+](=O)[O-])c2)=NO1 (configuration not stated)
 : -6, -11, -3, 3652, 3.3, 8, 10
> O=C(O)/C=C/c1ccc(OCc2cccc(F)c2)cc1
 : -59, -3, 10, 4435, 8.1, 11, -1
> CCC[C@H]1COCCS(=O)(=O)N1Cc1ccccc1F
 : 2, -2, /, 2884, /, /, /
> CC=C(C)C(=O)Nc1cccc(C2=NOC3(C2)CC(C(N)=O)N(C(=O)C(c2ccccc2)c2ccccc2)C3)c1 (configuration not stated)
 : /, /, 3, /, 4.3, 3, 8
> COc1ccc(N2CCN(C3CCCN(C(=O)CSC)C3)CC2)cc1 (configuration not stated)
 : -40, -7, 13, 4148, 3.3, 3, -4
> O=C(O)CCc1ccc(-c2cccs2)n1NC(=O)c1ccc(Cl)cc1Cl
 : -1, -1, 12, 15613, 5.6, 5, 3
> CC(CNc1ccc([N+](=O)[O-])cc1)NC(=O)c1ccccc1Br (configuration not stated)
 : 5, -7, 7, 7857, 4.3, 22, 13
> CC(C)(C)c1ccc(C2C(C(=O)c3ccco3)=C(O)C(=O)N2CC2CCCO2)cc1 (configuration not stated)
 : -3, -9, -1, 3514, 17, 1, 3

Single records, from the list above. Values in the order: PrP UTR inh, BJeLR viability, Sa ugtP lethal, Bead autofluor, RN4220 kill, Mtb hypoxia rep, Mtb hypoxia rep growth
Results for Cc1ccn(CCSCC(=O)O)n1 = -36, -1, 1, 22249*, 1.4, 3, -2
Results for O=C(Nc1ccncc1)Nc1ccc(Cl)cc1 = -27, 2, -15, 6204, -9.0, 5, 14
